Assay outcomes deposited in PubChem by several laboratories.
Mtb hypoxia rep: inhibitors of hypoxia-regulated fluorescent reporter in Mycobacterium tuberculosis; M. tuberculosis hypoxia-regulated fluorescent reporter, fluorescence; fluorescence inhibition, % (test concentration not listed); hit rate 0.1% among 300,000; AID 1159583;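 active means 35 to 45% if threefold the growth effect, above 45% if 1.5-fold the growth effect; inactive means the rest, general growth blockers included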;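 further: wells of about 50 µL received 100 nL stock; 0% = vehicle wells and 100% = reference inhibitor wells; whole bacteria with a GFP reporter of the hypoxia response; strong numbers were not always called active; many hits fall short of the cut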
Sa RN4220 lethal: S. aureus RN4220 growth inhibition | OD600, 16 h | inhibition, % (no concentration beside the values) | hit rate 0.33% among 330,000;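 active means z-score of -3 or lower and OD600 up to 0.18 on both plates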;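 further: plate controls were untreated cells for no effect and reference antibiotic for full effect; stock transfer was 100 nL into about 80 µL; one replicate is shown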
Bead autofluor: counter-screen for toxin protease inhibitors: compound fluorescence | compound autofluorescence counterscreen, microsphere flow cytometry; stronger effect = higher value | fluorescence intensity (test concentration not listed) | hit rate 3.1% among 360,000 | AID 624483;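 active means at least 3 SD above the mean of all compounds, about 16000 in these data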;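 further: 100 nL of 1 mM stock went into each well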
BJeLR viability: kills HRASV12-expressing BJeLR cells; inhibition, % (no concentration beside the values); BJeLR (HRASV12) viability, CellTiter-Glo ATP luminescence, 48 h; reference of the scale not given here; hit rate 0.17% among 300,000;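 active means replicate mean above 50%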;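 further: 50 nL library stock added to about 25 µL; numbers are from one replicate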
ugtP null kill: compounds lethal to S. aureus RN4220 ugtP deletion mutant; OD600 growth, 16 h; some inactives read as strong as hits; hit rate 0.54% among 330,000; growth inhibition, % (concentration not given with the values);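 active means z-score under -3 and OD600 up to 0.15 on both plates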;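 further: plate controls were untreated wells for no effect and antibiotic for full effect; wells of about 80 µL received 100 nL stock; the first replicate is given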
PrP UTR inh: suppresses PrP 5' UTR mRNA reporter expression; cell-based PrP 5' UTR mRNA reporter, plate reader; inhibition, % (concentration not given with the values); hit rate 0.35% among 340,000; AID 488862;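 active means every replicate at 50% or more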;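 further: 0 = median of the neutral control wells; tested in H4 reporter cells; numbers are from one replicate; inactives centre near -14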
Mtb hypoxia rep growth: further read-out of Mtb hypoxia rep, marked with its call; growth inhibition, %; measured here: M. tuberculosis growth (absorbance);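 0% = vehicle and 100% = reference antibiotic; read after six days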
The depositor's hits bear a star; x = not tested or not shown.

1. O=C(CCNc1n[nH]c(=O)[nH]c1=O)NN=Cc1ccc(Br)cc1
2. O=C(Nc1ccccc1F)N1CCCC1c1cccnc1 (centres undefined)
3. CSc1ccccc1NC(=O)CN(C)C(=O)c1ccc(-n2cccn2)cc1
4. COc1ccc(NS(=O)(=O)c2ccc(-n3cnnn3)cc2)cc1OC
5. CC(=O)NC(Cc1c[nH]c2ccccc12)C(=O)OCC(=O)N1CCCCCC1 (centres undefined)
6. O=C(C1COc2ccccc2O1)N1CCN(Cc2ccc3c(c2)OCO3)CC1 (centres undefined)
7. O=C(COc1ccccc1)NCC(=O)Nc1cccc2ccccc12
8. COC(=O)c1sc(S(=O)(=O)N2CCC(C)CC2)c(C(=O)OC)c1C
compound no.	1	2	3	4	5	6	7	8
Mtb hypoxia rep	8	9	-2	-2	-5	-3	2	12
Mtb hypoxia rep growth	3	-2	-8	3	6	6	5	-1
Sa RN4220 lethal	7.1	4.2	7.7	0.7	0.3	0.9	3.3	2.4
Bead autofluor	x	3917	3177	5689	4325	2815	7335	4238
BJeLR viability	x	-1	x	2	4	6	4	3
ugtP null kill	-5	9	14	-3	1	-3	-5	4
PrP UTR inh	x	-27	-16	4	-7	-2	-10	-15

Given as labelled records: part of the list above.
(4) COc1ccc(NS(=O)(=O)c2ccc(-n3cnnn3)cc2)cc1OC
  Mtb hypoxia rep: -2	Mtb hypoxia rep growth: 3	Sa RN4220 lethal: 0.7	Bead autofluor: 5689	BJeLR viability: 2	ugtP null kill: -3	PrP UTR inh: 4
(5) CC(=O)NC(Cc1c[nH]c2ccccc12)C(=O)OCC(=O)N1CCCCCC1 (centres undefined)
  Mtb hypoxia rep: -5	Mtb hypoxia rep growth: 6	Sa RN4220 lethal: 0.3	Bead autofluor: 4325	BJeLR viability: 4	ugtP null kill: 1	PrP UTR inh: -7

Next entries:
9. COc1ccc(C(C(=O)NC2CCCCC2)N2CCC3(CC2)OCCO3)cc1 (centres undefined)
10. Cn1cc(C(=O)NN=Cc2c(O)ccc3ccccc23)ccc1=O
11. CCOC(=O)C1=C(NC(=S)NC(=O)c2ccccc2)c2ccccc2CC12CCCC2
12. CC(C)C(NC(=O)c1ccccc1)C(=O)NCCc1ccccc1 (centres undefined)
13. O=C(Nc1ccc(-n2cccn2)cc1)C1CCCCN1Cc1cccc2c1OCO2 (centres undefined)
14. CC(=O)Nc1cccc(C(=O)OCC(=O)NNC(=O)c2cccs2)c1
15. COC(=O)Nc1ccc(S(=O)(=O)N2CCC(Cc3ccccc3)CC2)cc1
16. Cc1nn(C)c(C)c1C=NNC(=O)C(C)(C)Oc1ccc(Cl)cc1
compound no.	9	10	11	12	13	14	15	16
Mtb hypoxia rep	x	-4	-4	8	8	6	4	4
Mtb hypoxia rep growth	x	1	-13	10	-1	2	6	5
Sa RN4220 lethal	0.5	2.2	2.3	5.8	-2.0	1.7	-6.5	6.0
Bead autofluor	3865	x	2076	4252	4815	x	3288	x
BJeLR viability	x	x	17	-12	-4	4	8	x
ugtP null kill	2	-1	2	2	2	4	-7	2
PrP UTR inh	-5	x	13	-10	-41	-51	-25	x

17. COc1ccc2nc(SCC(=O)N3CCN(c4ccc(F)cc4)CC3)c(C#N)cc2c1
18. CCN(N=Cc1ccccc1)c1cc(=O)n(C)c(=O)[nH]1
19. COc1cccc(-c2nc(-c3ccccn3)no2)c1
20. Cc1cccc(C)c1NC(=O)CSC(=O)c1sc2ccccc2c1Cl
21. COc1ccc(S(=O)(=O)Nc2cccc(/C=C/C(=O)O)c2)cc1
22. CCN(CC)S(=O)(=O)c1cc(C(=O)Nc2cccnc2)ccc1Cl
23. O=c1[nH]c2ccccc2nc1/C=C/c1ccc(O)cc1
24. CCCCN1C(Nc2ccccc2)=NC[C@@H]1CC(C)C
compound no.	17	18	19	20	21	22	23	24
Mtb hypoxia rep	x	-2	7	8	-4	-4	x	8
Mtb hypoxia rep growth	x	7	1	5	-4	11	x	16
Sa RN4220 lethal	-1.9	7.4	3.9	10	0.3	1.9	x	-12
Bead autofluor	4726	x	x	4753	2624	11204	4731	4076
BJeLR viability	-12	x	21	3	-3	6	21	x
ugtP null kill	-4	-8	-1	3	3	6	x	-2
PrP UTR inh	-18	x	x	-19	-7	-50	-59	-13

25. Cc1ccc(NC(=O)Cc2ccccc2F)cc1S(=O)(=O)N1CCCCCC1
26. CCOC(=O)C1CCCCN1C(=O)CCc1nnc(-c2ccc3c(c2)OCO3)o1 (centres undefined)
27. CC(NC(=O)c1ccc(S(=O)(=O)C(F)F)cc1)c1ccccc1 (centres undefined)
28. CC(C)(C)NC(=O)NC(=O)C[n+]1ccc(Cc2ccc([N+](=O)[O-])cc2)cc1
29. CCCNCC(=O)Nc1cccc(S(=O)(=O)NC2=NCCCCC2)c1
30. CCCOc1ccc2c3c(c(=O)oc2c1OCCC)CCC3
31. O=C1CC(Cc2ccccc2)C(=O)N1Cc1ccco1 (centres undefined)
32. CCOC(=O)C(C)=NNc1nc(-c2ccc(NC(C)=O)cc2)cs1
compound no.	25	26	27	28	29	30	31	32
Mtb hypoxia rep	22	9	11	-4	6	13	x	1
Mtb hypoxia rep growth	8	7	6	5	4	10	x	6
Sa RN4220 lethal	0.7	-0.7	6.1	2.3	2.7	16	x	15
Bead autofluor	6087	5445	4995	3726	4134	10467	2912	x
BJeLR viability	x	-7	-15	-2	x	-2	-8	x
ugtP null kill	0	7	2	1	1	-9	x	-4
PrP UTR inh	-4	-35	-9	-34	-19	-39	-6	x

33. Cc1cccc(NC2=NCCCS2)c1C
34. C/C(=N\OC(=O)c1c(-c2ccccc2Cl)noc1C)c1nccs1
35. N#CC(=C(O)CSc1nnc(Cc2cccs2)n1C1CCCCC1)c1nc2ccccc2[nH]1
36. Nc1nc(SCC(=O)Nc2ccccc2)[nH]c(=O)c1-c1ccccc1
37. CCOc1ccc(NC(=O)CN(C)C(=O)c2cc(-c3ccncc3)nc3ccccc23)cc1OCC
38. COc1ccc(-c2csc3nc(C(C)(C)C)oc(=O)c23)cc1OC
39. O=C(NCCNC(=O)c1ccc(Cl)cc1Cl)c1cnccn1
40. Nc1cccc(-c2cn3cc(C(F)(F)F)cc(Cl)c3n2)c1
compound no.	33	34	35	36	37	38	39	40
Mtb hypoxia rep	-8	x	0	7	-5	3	-6	9
Mtb hypoxia rep growth	-8	x	4	-1	10	1	3	6
Sa RN4220 lethal	2.7	x	6.4	1.0	2.2	2.3	0.1	1.7
Bead autofluor	9065	3344	x	13030	4626	2600	2868	9107
BJeLR viability	-13	-5	x	-4	1	-2	-3	0
ugtP null kill	4	x	6	0	7	10	-1	-3
PrP UTR inh	-7	13	x	-25	-32	-15	-18	-26

41. COc1ccc2c(c1)c1ccc3c(c1n2C)C(=O)C=CC3=O
42. O=c1ccc(Cc2ccccn2)n[nH]1
43. COC(=O)Nc1ccc(S(=O)(=O)N2CCCC(C(=O)N3CCC(C)CC3)C2)cc1 (centres undefined)
44. O=C(NCCCn1ccnc1)c1cc2cc([N+](=O)[O-])ccc2oc1=O
45. O=S(=O)(c1ccc(S(=O)(=O)N(Cc2cccs2)CC2CCCO2)cc1)N1CCCCC1 (centres undefined)
46. Cc1cc(C)c(N=C2SCC(=O)N2Cc2ccco2)c(C)c1
47. COC(=O)C1=C(C)NC(C)=C(C(=O)OC)C1c1ccccn1
48. O=C(O)Cn1nc2ccccc2n1
compound no.	41	42	43	44	45	46	47	48
Mtb hypoxia rep	17	18	5	-2	1	-4	8	-2
Mtb hypoxia rep growth	4	12	0	1	16	3	5	7
Sa RN4220 lethal	9.1	1.1	5.1	2.9	3.0	-8.2	4.0	6.2
Bead autofluor	2582	3151	4347	9520	10744	4072	6641	22940*
BJeLR viability	x	-5	15	-5	1	-3	10	3
ugtP null kill	66	8	17	2	0	20	3	1
PrP UTR inh	6	-13	-14	-27	14	-45	-21	-12

49. CCOC(=O)CCCSc1nc(-c2ccc3c(c2)OCO3)cc(C(F)(F)F)c1C#N
50. CC(=O)Nc1ccc(C(=O)CN2C(=O)NC3(CCCc4ccccc43)C2=O)c(F)c1 (centres undefined)
51. CCC(C)(C)n1nnnc1CN1CCC(NC(=O)c2ccccc2C)CC1
52. Nc1ccc(-c2c3ccccc3nc3ccccc23)cc1
53. Cc1ccc(C=NNC(=O)c2nnn(-c3nonc3N)c2C(C)C)o1
54. COc1cccc(C2N=C(c3ccccc3C)NO2)c1OC (centres undefined)
55. CN(Cc1ccc(C(C)(C)C)cc1)C(=O)Cc1ccc(S(=O)(=O)N2CCOCC2)s1
56. COc1ccc(CCNC2CC(=O)N(CCc3ccc(OC)c(OC)c3)C2=O)cc1OC (centres undefined)
compound no.	49	50	51	52	53	54	55	56
Mtb hypoxia rep	-3	5	4	12	9	12	6	-1
Mtb hypoxia rep growth	0	5	4	-1	-1	2	-10	3
Sa RN4220 lethal	1.6	7.9	3.9	-0.1	4.9	11	3.4	-16
Bead autofluor	11285	3418	8605	3969	x	4479	9559	3037
BJeLR viability	0	x	4	9	x	-1	x	5
ugtP null kill	8	-3	7	17	4	6	10	-5
PrP UTR inh	-18	-22	-14	-17	x	5	-4	-6

57. COc1ccc(N2C(=O)CC(Sc3nc(C)c4c(n3)CCCC4)C2=O)cc1 (centres undefined)
58. O=[N+]([O-])c1ccc(C(O)C[n+]2ccccc2)cc1 (centres undefined)
59. COc1ccc(CCNC(=O)CSc2nnc(Cc3csc(N)n3)n2C)cc1OC
60. CCOC(=O)C1(Cc2cccc(Cl)c2)CCCN(C(=O)c2ccco2)C1 (centres undefined)
61. O=C(O)CCn1cc(-c2ccc(Cl)cc2)nc1-c1ccc(Cl)nc1
62. O=C(O)c1cccc(N2C(=O)c3cccnc3C2=O)c1
63. O=c1c(NCCc2ccc(Cl)cc2)c(-c2ccccc2)c1=O
64. COc1cc(OC)c2ccc(=O)oc2c1C(CCN1CCCC1)c1ccc(N(C)C)cc1 (centres undefined)
compound no.	57	58	59	60	61	62	63	64
Mtb hypoxia rep	3	3	x	10	15	10	5	0
Mtb hypoxia rep growth	1	8	x	-1	8	8	-1	7
Sa RN4220 lethal	4.0	-0.1	2.7	7.3	2.1	0.8	-5.5	-1.7
Bead autofluor	3600	3206	5218	4504	3897	23303*	2948	4541
BJeLR viability	-5	-4	-6	4	x	-2	-1	-4
ugtP null kill	6	6	-4	4	-7	2	-1	-5
PrP UTR inh	-23	-11	-27	-28	-25	-8	-11	-2

65. COC(=O)C1CCN(c2cc(=O)n(-c3ccccc3Cl)c(=O)[nH]2)CC1
66. O=C(O)c1ccccc1SCc1nc2ccccn2c1Br
67. O=C(O)Cc1c(C(=O)O)nnn1-c1ccc(Cl)cc1Cl
68. COc1ccc([N+](=O)[O-])cc1NC(=O)C(C)OC(=O)c1ccccc1C(=O)c1ccc(Cl)cc1 (centres undefined)
69. O=C(NCc1ccc(F)cc1)c1cccnc1
70. C=CCOc1cccc(C2/C(=C(/O)c3ccc4c(c3)CC(C)O4)C(=O)C(=O)N2CCN2CCOCC2)c1 (centres undefined)
71. O=C(NCCc1ccccc1)C(=O)NCC1OCCN1S(=O)(=O)c1cc(F)ccc1F (centres undefined)
72. CC(C)CC(NC(=O)c1ccccc1NC(=O)c1ccccc1)C(=O)O (centres undefined)
compound no.	65	66	67	68	69	70	71	72
Mtb hypoxia rep	4	9	2	-3	18	-10	-10	9
Mtb hypoxia rep growth	12	17	1	-7	10	-9	7	11
Sa RN4220 lethal	2.8	5.6	4.8	1.9	8.1	4.1	-10	9.7
Bead autofluor	10963	4264	2203	2248	4101	4647	4393	2623
BJeLR viability	x	1	-3	-15	3	5	-11	-2
ugtP null kill	-2	16	3	-8	12	1	-4	10
PrP UTR inh	-7	-23	-7	-8	-42	6	-10	-7

73. COc1ccc(N2C(=O)CC(n3c(CCCCO)nc4ccccc43)C2=O)cc1 (centres undefined)
74. Cc1ccc(NS(=O)(=O)c2ccc(OCC(=O)NCc3ccncc3)cc2)cc1
75. CCC1(C(=O)O)NC(c2cc(OC)ccc2O)C2C(=O)N(Cc3ccccc3)C(=O)C21 (centres undefined)
76. O=C1CSC(c2ccc(F)cc2)N1c1c(F)cccc1F (centres undefined)
compound no.	73	74	75	76
Mtb hypoxia rep	x	25	x	6
Mtb hypoxia rep growth	x	6	x	1
Sa RN4220 lethal	2.2	3.9	4.5	-0.5
Bead autofluor	2170	2353	5647	3087
BJeLR viability	-5	-1	-5	0
ugtP null kill	0	9	6	1
PrP UTR inh	-12	-16	-7	-6
